MenB inh: inhibitors of Mycobacterium tuberculosis MenB enzyme; AID 540299; P9WNP5; MenB enzyme assay, absorbance read-out; some hits fall short of the stated cut; 0.43% of 100,000 active; inhibition, %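 (about 12 µg/mL by stock and volumes)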;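 active = mean of two replicates above 30%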;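 note: 0% = no compound and 100% = wells with inactive enzyme; the first replicate is given; strong numbers were not always called active; inactives centre near -10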
Target sequence (P9WNP5 whole entry, looked up): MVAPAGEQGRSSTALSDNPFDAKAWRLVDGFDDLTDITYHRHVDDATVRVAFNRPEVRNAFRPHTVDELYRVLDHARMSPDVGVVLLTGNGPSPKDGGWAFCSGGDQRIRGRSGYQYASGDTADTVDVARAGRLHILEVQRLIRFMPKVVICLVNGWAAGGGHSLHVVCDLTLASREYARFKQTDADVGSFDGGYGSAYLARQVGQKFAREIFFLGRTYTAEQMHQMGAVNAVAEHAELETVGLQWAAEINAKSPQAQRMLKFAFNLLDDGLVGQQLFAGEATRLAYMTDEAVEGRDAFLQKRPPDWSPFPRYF
Polio RdRp inh: inhibitors of poliovirus RNA polymerase binding and polymerization; AID 588519; poliovirus polymerase elongation, fluorescence polarization; stronger effect = lower value; P03300; 0.66% of 150,000 active; % elongation, % (compound at 16.7 µg/mL); in the data active = % elongation below about 90%; note: some results filed as inactive read as strong as hits
Mtb MbtI inh: MbtI salicylate synthase inhibition; P9WFX0; purified MbtI enzyme, fluorescence intensity read-out; inhibition, %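 (about 17 µg/mL by stock and volumes)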; 0.89% of 100,000 active; AID 493033;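 active = above 50% in both replicates, above 80% if mildly self-fluorescent; inactive = the rest, strongly fluorescent compounds included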;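 note: 0% = mean of negative and 100% = mean of positive controls; one replicate is shown; some compounds called inactive have numbers as strong as hits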
Target sequence (P9WFX0 whole entry, looked up): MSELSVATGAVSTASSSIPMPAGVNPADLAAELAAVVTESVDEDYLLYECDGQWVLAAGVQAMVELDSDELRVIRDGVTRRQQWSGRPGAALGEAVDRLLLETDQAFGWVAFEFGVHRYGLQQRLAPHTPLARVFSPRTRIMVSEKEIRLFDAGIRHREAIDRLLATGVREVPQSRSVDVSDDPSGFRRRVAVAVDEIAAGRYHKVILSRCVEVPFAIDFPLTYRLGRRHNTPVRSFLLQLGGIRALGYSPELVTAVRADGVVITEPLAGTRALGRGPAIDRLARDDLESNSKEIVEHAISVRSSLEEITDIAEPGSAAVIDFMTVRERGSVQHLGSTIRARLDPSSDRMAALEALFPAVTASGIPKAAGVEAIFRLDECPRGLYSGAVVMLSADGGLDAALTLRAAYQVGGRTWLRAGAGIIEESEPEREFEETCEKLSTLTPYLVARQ
Polio RdRp inh intensity: second read-out of Polio RdRp inh, no call of its own (marks repeat the call); % elongation; measured here: total intensity read-out; formula for this scale not given here;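 total fluorescence in place of polarization; lower means less elongation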
* hit, by the source's call; & = joins results of further samples.

For CNC(=O)CSc1nnc(-c2ccccc2OC)n1CCc1ccccc1 the results were MenB inh -13, Polio RdRp inh 106, Mtb MbtI inh -8 and Polio RdRp inh intensity 100.
COCCOC(=O)c1ccc2nc(N)sc2c1 was read as MenB inh 0, Polio RdRp inh 101, Mtb MbtI inh 115 and Polio RdRp inh intensity 101.
For CC(C)(C)NC(=O)[C@@H]1C[C@@H]2CCCC[C@@H]2CN1C[C@@H](O)[C@H](Cc1ccccc1)NC(=O)[C@H](CC(N)=O)NC(=O)c1ccc2ccccc2n1 the results were MenB inh -2, Polio RdRp inh 101, Mtb MbtI inh 3 and Polio RdRp inh intensity 100.
`CCCC(=O)c1c(NC(C)C)cc(C)oc1=O` gave MenB inh -13, Polio RdRp inh 98, Mtb MbtI inh 12 and Polio RdRp inh intensity 101.
Screening Cc1c2n(c3ccccc13)CC/C2=N\O returned MenB inh -5, Polio RdRp inh 103, Mtb MbtI inh 86 and Polio RdRp inh intensity 104.
`S=c1[nH]c2ccccc2n1C1CCCCC1` gave MenB inh -14, Polio RdRp inh 100, Mtb MbtI inh 98* and Polio RdRp inh intensity 97.
`CC[C@@]1(COC)C2[C@@H](OC)C[C@]3(OC(C)=O)C4C(C[C@](O)([C@@H](OC)C[C@@H]3O)[C@@H]4OC(=O)c3ccccc3)[C@]2(C(C)C)[C@@H](OC)C[C@H]1O` (some centres not stated) gave MenB inh -1, Polio RdRp inh 102 and Polio RdRp inh intensity 103.
O=C(NCC1CCCO1)c1cc(-c2ccc(Cl)s2)nc2ccccc12 (configuration not stated) was read as MenB inh -5, Polio RdRp inh 100, Mtb MbtI inh 105 and Polio RdRp inh intensity 105.
`O=C(CSC(=O)c1ccco1)Nc1cc(C(F)(F)F)cc(C(F)(F)F)c1` gave MenB inh -3, Polio RdRp inh 104, Mtb MbtI inh -11 and Polio RdRp inh intensity 114.
For O=C(CNc1ccc2ccccc2c1)N1CCN(c2ccccc2)CC1 the results were MenB inh -9, Polio RdRp inh 100, Mtb MbtI inh 73 and Polio RdRp inh intensity 100.
For CCOC(=O)/C=C1\NC(c2ccccc2)=C(c2ccccc2)C1=O the results were Polio RdRp inh 101, Mtb MbtI inh -2 and Polio RdRp inh intensity 99.
`Fc1c(F)c(F)c(NC2=NCCCCC2)c(F)c1F` gave Polio RdRp inh 100, Mtb MbtI inh -14 and Polio RdRp inh intensity 103.
`O=C(NC(=O)c1cnccc1C(F)(F)F)Nc1ccc(Cl)cc1Cl` gave MenB inh 0, Polio RdRp inh 104, Mtb MbtI inh -10 and Polio RdRp inh intensity 114.
For Cc1c(CCC#N)c(Cl)n2c(nc3ccccc32)c1C#N the results were MenB inh -26, Polio RdRp inh 101, Mtb MbtI inh -7 and Polio RdRp inh intensity 105.
`CCNC(=O)c1cnc(N2CCCC2)nc1` gave MenB inh 4, Polio RdRp inh 101, Mtb MbtI inh 21 and Polio RdRp inh intensity 101.
Screening O=C(NCc1ccccc1)c1ccc2noc(-c3ccccc3)c2c1 returned MenB inh -8, Polio RdRp inh 103, Mtb MbtI inh 7 and Polio RdRp inh intensity 97.
`O=C(NC1CCCc2ccccc21)c1cc(S(=O)(=O)N2CCCCC2)c[nH]1` (configuration not stated) gave MenB inh -44, Polio RdRp inh 101, Mtb MbtI inh -6 and Polio RdRp inh intensity 100.
For CCCCC(C(=O)O)N1C(=O)/C(=C/c2cccnc2)SC1=S (configuration not stated) the results were MenB inh -31, Polio RdRp inh 98, Mtb MbtI inh 11 and Polio RdRp inh intensity 100.
For O=C(OCC(=O)c1ccccc1Cl)c1cnccn1 the results were MenB inh -41, Polio RdRp inh 100, Mtb MbtI inh -3 and Polio RdRp inh intensity 98.
Screening COc1ccc(CNC2CCCCC2)cc1 returned MenB inh 6, Polio RdRp inh 103 and Polio RdRp inh intensity 103.
CC1CCCCC1NC(=O)COC(=O)c1cc(-c2ccco2)nc2ccccc12 (configuration not stated) was read as MenB inh 13, Polio RdRp inh 99, Mtb MbtI inh -67 and Polio RdRp inh intensity 103.
Screening c1ccc(CN=C2SC(=Nc3ccccc3)C3=C2CCCC3)cc1 returned MenB inh 6, Polio RdRp inh 100, Mtb MbtI inh -4 and Polio RdRp inh intensity 107.
For CCOC(=O)NN1CNc2ccccc2C1=O the results were MenB inh 3, Polio RdRp inh 100, Mtb MbtI inh inactive and Polio RdRp inh intensity 104.
O=C(Cn1ccc2ccccc2c1=O)NCC(=O)N1CCC2(CC1)OCCO2 was read as MenB inh -3, Polio RdRp inh 99, Mtb MbtI inh 38 and Polio RdRp inh intensity 100.
CCOP(=O)(c1ccccc1)C(O)c1ccc(Br)cc1 (configuration not stated) was read as MenB inh -18, Polio RdRp inh 101, Mtb MbtI inh -12 and Polio RdRp inh intensity 101.
For O=C(O)c1ccccc1NS(=O)(=O)c1ccccc1 the results were MenB inh 1, Polio RdRp inh 102 and Polio RdRp inh intensity 101.
For Cc1nc2cc(-c3ccccc3)nn2c(C)c1CC(=O)N1CCCC1 the results were MenB inh -20, Polio RdRp inh 101, Mtb MbtI inh 16 and Polio RdRp inh intensity 91.
COc1cccc(C(=O)Nc2c(C(=O)Nc3ccccc3F)oc3ccccc23)c1OC was read as MenB inh -31, Polio RdRp inh 101, Mtb MbtI inh 13 and Polio RdRp inh intensity 101.
For CCOc1ccc2[nH]c(=O)c(CN(C(=O)Nc3ccccc3)C3CC3)cc2c1 the results were MenB inh -40, Polio RdRp inh 105, Mtb MbtI inh 88 and Polio RdRp inh intensity 100.
Screening O=C1Oc2ccccc2C2c3sc(=O)[nH]c3SC(c3ccccc3)C12 (configuration not stated) returned MenB inh -39, Polio RdRp inh 105, Mtb MbtI inh 5 and Polio RdRp inh intensity 100.
For CNC(=S)Nc1ccc(C)c(NC(=S)NC)c1 the results were MenB inh -10, Polio RdRp inh 111, Mtb MbtI inh 38 and Polio RdRp inh intensity 135.
`COC(=O)CNc1c(-c2ccccc2)nc2ccccn12` gave MenB inh -25, Polio RdRp inh 105, Mtb MbtI inh -20 and Polio RdRp inh intensity 105.
O=C(NN=C1C2CC3CC(C2)CC1C3)c1cccc(O)c1 was read as MenB inh -11, Polio RdRp inh 100, Mtb MbtI inh 10 and Polio RdRp inh intensity 102.
`CCOC(=O)c1c(O)c2cccc3c2n(c1=O)CCC3` gave MenB inh -1, Polio RdRp inh 98, Mtb MbtI inh 26 and Polio RdRp inh intensity 101.
For CCN(CC)S(=O)(=O)c1ccc(C(=O)Oc2coc(CSc3ncccn3)cc2=O)cc1 the results were MenB inh 0, Polio RdRp inh 104, Mtb MbtI inh 4 and Polio RdRp inh intensity 101.
`O=C(O)c1cc(C23CC4CC(CC(C4)C2)C3)nc2ccc(Br)cc12` gave MenB inh 1, Polio RdRp inh 100, Mtb MbtI inh -2 and Polio RdRp inh intensity 101.
For C/C1=C/C(=O)O[C@@H]2C[C@@H](CC[C@H](C)/C=C\CC1)O[C@@](O)([C@@H]1CSC(=O)N1)C2 the results were MenB inh 3, Polio RdRp inh 104&99, Mtb MbtI inh -10 and Polio RdRp inh intensity 102&100.
Screening NC(=O)C1CCN(C(=O)CSc2nc(O)cc(=O)[nH]2)CC1 returned MenB inh -107, Polio RdRp inh 104, Mtb MbtI inh -2 and Polio RdRp inh intensity 101.
For N/C(COc1ccc(-c2nnco2)cc1)=N\OC(=O)c1cccc(C(F)(F)F)c1 the results were MenB inh -4, Polio RdRp inh 103, Mtb MbtI inh 2 and Polio RdRp inh intensity 103.
`CC1CCN(C(=O)/C=C\c2ccccc2)CC1` gave MenB inh -16, Polio RdRp inh 103 and Polio RdRp inh intensity 109.
OC(COC(C(F)(F)F)C(F)(F)F)CN1CCN(c2cccc(C(F)(F)F)c2)CC1 (configuration not stated) was read as MenB inh -15, Polio RdRp inh 105, Mtb MbtI inh -10 and Polio RdRp inh intensity 103.
For O=C(Nc1nc2ccccc2[nH]1)C1CC1 the results were MenB inh -19, Polio RdRp inh 100, Mtb MbtI inh 13 and Polio RdRp inh intensity 108.
For CS(=O)(=O)N(CC(=O)N1CCCCC1)C1CCCCC1 the results were MenB inh 0, Polio RdRp inh 101, Mtb MbtI inh -6 and Polio RdRp inh intensity 101.
Screening CC(=O)NC1(c2ccccc2)CCN(C(=O)c2cccs2)CC1 returned MenB inh -30, Polio RdRp inh 103, Mtb MbtI inh -5 and Polio RdRp inh intensity 104.
`C=CCSC1=N/C(=C\c2ccccc2)C(=O)N1c1ccc(OC)cc1` gave MenB inh -8, Polio RdRp inh 99, Mtb MbtI inh 4 and Polio RdRp inh intensity 101.
Screening Cc1cc(C)cc(N(CC(=O)O)S(=O)(=O)c2c(C)[nH]c(=O)[nH]c2=O)c1 returned MenB inh -14, Polio RdRp inh 100, Mtb MbtI inh -29 and Polio RdRp inh intensity 103.
For Nc1n[nH]c(CCCc2nc(N)n[nH]2)n1 the results were MenB inh -47, Polio RdRp inh 101, Mtb MbtI inh -6 and Polio RdRp inh intensity 100.
C/C(N)=C(/C#N)C(=O)CSc1nc(C)nc2ccccc12 was read as MenB inh -7, Polio RdRp inh 112, Mtb MbtI inh 15 and Polio RdRp inh intensity 119.
For Nc1sc2c(c1C(=O)c1ccccc1)CCCC2 the results were Polio RdRp inh 101, Mtb MbtI inh 26 and Polio RdRp inh intensity 91.
`CCOC(=O)CSc1nc(C)c2cc(C)c(C)cc2n1` gave MenB inh -15, Polio RdRp inh 101, Mtb MbtI inh 26 and Polio RdRp inh intensity 102.
CC1CN(CC(O)COC2CCCc3ccccc32)CC(C)O1 (configuration not stated) was read as MenB inh 3, Polio RdRp inh 104, Mtb MbtI inh -1 and Polio RdRp inh intensity 104.
`CCOc1ccc(NC(=O)CSc2nc3[nH]ncc3c(=O)n2-c2ccc(OC)cc2)cc1` gave MenB inh 10, Polio RdRp inh 99, Mtb MbtI inh -10 and Polio RdRp inh intensity 102.
For Cc1cc(Sc2ccc(Cl)cc2)nc(-c2ccccn2)n1 the results were MenB inh -30, Polio RdRp inh 103, Mtb MbtI inh -3 and Polio RdRp inh intensity 97.
For O=C(Nc1nccs1)C1C2/C=C\CCCCC21 (configuration not stated) the results were MenB inh -1, Polio RdRp inh 100, Mtb MbtI inh -13 and Polio RdRp inh intensity 101.
COC(=O)c1sccc1OCc1ccc(Cl)cc1 was read as MenB inh -8, Polio RdRp inh 101, Mtb MbtI inh -7 and Polio RdRp inh intensity 101.
Screening COc1ccc(C(=O)Nn2c(C)nnc2-n2nc(C)cc2C)cc1OC returned MenB inh -12, Polio RdRp inh 101, Mtb MbtI inh -4 and Polio RdRp inh intensity 97.
Screening CC1=C/C(=C/c2ccco2)C(=O)O1 returned MenB inh 1, Polio RdRp inh 94, Mtb MbtI inh 9 and Polio RdRp inh intensity 100.
CC1CCN(C(=O)CNC(=O)c2cccs2)CC1 was read as MenB inh -3, Polio RdRp inh 100, Mtb MbtI inh -7 and Polio RdRp inh intensity 103.
For COC(=O)C(Cc1ccccc1)NC(=O)c1c(-c2ccccc2)noc1C (configuration not stated) the results were MenB inh 10 and Mtb MbtI inh 16.
For CC1CCN(C(=O)c2ccc(NS(=O)(=O)c3ccccc3)cc2)CC1 the results were MenB inh 9, Polio RdRp inh 100, Mtb MbtI inh -10 and Polio RdRp inh intensity 101.
Screening C=CCn1c(SCC(=O)c2ccccc2)nnc1-c1cc2ccccc2o1 returned MenB inh -9, Polio RdRp inh 102, Mtb MbtI inh -8 and Polio RdRp inh intensity 102.
For CCOc1ccc(NC(=O)NC(C)CC)cc1 (configuration not stated) the results were MenB inh 10, Polio RdRp inh 101, Mtb MbtI inh -8 and Polio RdRp inh intensity 102.
Screening CCC(=O)c1ccc(OCC(O)CNC2CCCCCC2)cc1 (configuration not stated) returned MenB inh -11, Polio RdRp inh 103, Mtb MbtI inh -10 and Polio RdRp inh intensity 103.
`CC1=CC(C)C(C2OCC(C)(C)CO2)C(C)C1` (configuration not stated) gave MenB inh -1, Polio RdRp inh 103, Mtb MbtI inh 1 and Polio RdRp inh intensity 101.

Molecules above with an aryl thioether with sulfur outside any ring, in the order listed:
For CNC(=O)CSc1nnc(-c2ccccc2OC)n1CCc1ccccc1 the results were MenB inh -13, Polio RdRp inh 106, Mtb MbtI inh -8 and Polio RdRp inh intensity 100.
For CCN(CC)S(=O)(=O)c1ccc(C(=O)Oc2coc(CSc3ncccn3)cc2=O)cc1 the results were MenB inh 0, Polio RdRp inh 104, Mtb MbtI inh 4 and Polio RdRp inh intensity 101.
Screening NC(=O)C1CCN(C(=O)CSc2nc(O)cc(=O)[nH]2)CC1 returned MenB inh -107, Polio RdRp inh 104, Mtb MbtI inh -2 and Polio RdRp inh intensity 101.
C/C(N)=C(/C#N)C(=O)CSc1nc(C)nc2ccccc12 was read as MenB inh -7, Polio RdRp inh 112, Mtb MbtI inh 15 and Polio RdRp inh intensity 119.
`CCOC(=O)CSc1nc(C)c2cc(C)c(C)cc2n1` gave MenB inh -15, Polio RdRp inh 101, Mtb MbtI inh 26 and Polio RdRp inh intensity 102.
`CCOc1ccc(NC(=O)CSc2nc3[nH]ncc3c(=O)n2-c2ccc(OC)cc2)cc1` gave MenB inh 10, Polio RdRp inh 99, Mtb MbtI inh -10 and Polio RdRp inh intensity 102.
For Cc1cc(Sc2ccc(Cl)cc2)nc(-c2ccccn2)n1 the results were MenB inh -30, Polio RdRp inh 103, Mtb MbtI inh -3 and Polio RdRp inh intensity 97.
Screening C=CCn1c(SCC(=O)c2ccccc2)nnc1-c1cc2ccccc2o1 returned MenB inh -9, Polio RdRp inh 102, Mtb MbtI inh -8 and Polio RdRp inh intensity 102.

Screens: PubChem BioAssay, ICCB-Longwood Screening Facility, Harvard Medical School
